ALR inh: human ALR oxidase inhibition via reduced H2O2 | P55789 | purified ALR, DTT oxidation, H2O2 HRP-luminol luminescence | inhibition, % (concentration not given with the values) | actives 3.8% (n = 290,000) | AID 485317;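 active means mean and each replicate at 75% or more; inconclusive means only one of the two met; inactive means neither met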;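 further: stock transfer was 7.5 nL into about 7.5 µL; 0% = neutral wells and 100% = wells with inactivated enzyme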
Target sequence (P55789 whole entry, looked up): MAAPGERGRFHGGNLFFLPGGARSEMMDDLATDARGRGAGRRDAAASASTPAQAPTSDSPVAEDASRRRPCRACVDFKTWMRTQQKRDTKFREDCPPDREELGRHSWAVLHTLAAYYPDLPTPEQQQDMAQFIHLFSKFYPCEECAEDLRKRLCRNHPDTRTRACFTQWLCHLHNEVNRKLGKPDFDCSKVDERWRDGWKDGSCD
T cruzi repl: blocks replication of Trypanosoma cruzi; AID 1885; inhibition, % (concentration not given with the values); actives 1.4% (n = 300,000); T. cruzi beta-gal in NIH3T3, luminescence, 90 h;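 active means mean inhibition across valid replicates above about 55%, limit read from the data; inconclusive means mean below that limit but half or more replicates reach it; inactive means mean below it, under half of replicates reach it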;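 further: signal also drops with host cell toxicity which is not excluded here; 0% = plate median of DMSO wells and 100% = zero luminescence signal; higher percent means less beta-gal luminescence so fewer parasites; stock transfer was 50 nL into about 50 µL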
FGF22 binding: FGF22 (human) thermal shift binding; actives 1.5% (n = 340,000); recombinant FGF22 thermal shift, SYPRO orange fluorescence; percent of sucrose octasulfate shift, DMSO zero; AID 651658; calls only at 9.99 µM;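 active means melting point raised past a set limit in the mean and every replicate; inconclusive means no clear call; three in four hits are not shown here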
Target sequence (Q9HCT0 whole entry, looked up): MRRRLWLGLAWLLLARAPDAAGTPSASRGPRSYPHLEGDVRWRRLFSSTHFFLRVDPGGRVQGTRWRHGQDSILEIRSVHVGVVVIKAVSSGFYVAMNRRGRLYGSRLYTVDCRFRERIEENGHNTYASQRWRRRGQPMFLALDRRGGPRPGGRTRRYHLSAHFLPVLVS
RanGTP-Imp inh: inhibitors of RanGTP-importin-beta interaction, primary screen, biochemical, FRET, CFP-Ran, YFP-importin-beta, homogeneous. actives 1.1% (n = 300,000). inhibition, % (test concentration not listed). cell-free CFP-Ran/YFP-importin-beta FRET ratio;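 active means most replicates above 15%; inconclusive means exactly half above 15%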;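 further: 0% = DMSO wells and 100% = Ran loaded with GDP instead of GTP; wells of about 40 µL received 100 nL stock; the first replicate is given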
AF4-AF9 inh: inhibitors of human MLL-AF4/AF9 interaction. AlphaScreen, biotin-AF4 peptide binding to FLAG-AF9. inhibition, % at 10 µM. actives 0.47% (n = 350,000). AID 651704;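 active means every replicate reaching a set inhibition limit, whatever the replicate mean, cut at about 25% in these data; inconclusive means mean inhibition reaches that limit but some replicates miss it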;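 further: 0% = plate neutral control median and 100% = total signal loss; the record names both 10 and 1 µM as test concentration; the first replicate is given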
Target sequence (P42568 whole entry, looked up): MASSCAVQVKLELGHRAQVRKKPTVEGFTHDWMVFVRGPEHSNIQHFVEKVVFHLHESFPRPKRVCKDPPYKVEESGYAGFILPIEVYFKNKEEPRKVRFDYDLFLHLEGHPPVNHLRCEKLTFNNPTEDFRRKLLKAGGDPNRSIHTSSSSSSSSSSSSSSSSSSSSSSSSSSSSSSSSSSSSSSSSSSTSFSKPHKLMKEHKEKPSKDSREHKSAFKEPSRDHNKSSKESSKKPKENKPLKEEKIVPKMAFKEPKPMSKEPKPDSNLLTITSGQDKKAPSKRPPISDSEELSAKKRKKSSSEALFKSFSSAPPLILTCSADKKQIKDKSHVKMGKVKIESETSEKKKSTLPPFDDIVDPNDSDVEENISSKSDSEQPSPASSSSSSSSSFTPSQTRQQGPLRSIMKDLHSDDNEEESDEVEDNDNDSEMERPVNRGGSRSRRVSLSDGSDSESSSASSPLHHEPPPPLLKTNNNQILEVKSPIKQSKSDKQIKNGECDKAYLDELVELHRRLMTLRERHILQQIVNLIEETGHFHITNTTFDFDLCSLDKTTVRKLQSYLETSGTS
rRNA inh HTS: selective bacterial rRNA inhibition in E. coli; E. coli WT GFP vs humanized-ribosome RFP mutants, fluorescence, 24 h; hits give low values; DMSO median 0, no signal -100; GFP signal change (wild-type ribosome), % (no concentration beside the values); actives 1.6% (n = 350,000); AID 720706;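 active means significant combined selectivity score with lowered wild-type GFP, culture density cut under 30%, mutant RFP and density less affected; inactive means any of these conditions unmet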; further: one replicate is shown; some compounds called inactive have numbers as strong as hits
Beta cell apopt: beta cell apoptosis inhibition | INS-1E cytokine-induced death, ATP luminescence, 48 h; percent of positive-control rescue, neutral wells zero | protection from apoptosis, % (no concentration beside the values) | actives 0.8% (n = 300,000);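 active means all replicates at 75% or more, or half of them and the mean; inconclusive means half reach 75% but not the mean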;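 further: 0% = cytokine-treated negative control wells and 100% = positive control rescue; higher means more ATP so stronger rescue from cytokine killing; wells of about 40 µL received 100 nL stock; the first replicate is given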
Calb FLC: C. albicans growth modulation with fluconazole | actives 0.57% (n = 300,000) | C. albicans CaCi-2 (fluconazole-resistant clinical isolate) + fluconazole, Alamar Blue growth, 48 h | AID 1979 | growth inhibition, % (no concentration beside the values);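 active means most replicates above 75%; inconclusive means exactly half above 75%; inactive means most below 75%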;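 further: all wells also contain fluconazole at 8 µg/ml as a sub-toxic cotreatment; 0% = median of DMSO wells and 100% = median of geldanamycin control wells; wells of about 8 µL received 7.5 nL stock; the first replicate is given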
rRNA inh HTS OD600: further read-out of rRNA inh HTS, marked with its call; OD600 change, %; measured here: OD600 growth;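 optical density of the mix in the first replicate; 0 = DMSO median and -100 = no signal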
rRNA inh HTS RFP: recorded beside rRNA inh HTS, whose call it bears; RFP signal change, %; measured here: RFP humanized mutant strains;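 first replicate; 0 = DMSO median and -100 = no signal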
* marks the source's active call; other numbers are inactive results; i = inactive; ? = inconclusive; . = not tested or not shown.

Start of the data: the first 2 records (preview)
SMILES	ALR inh	T cruzi repl	FGF22 binding	RanGTP-Imp inh	AF4-AF9 inh	rRNA inh HTS	rRNA inh HTS OD600	rRNA inh HTS RFP	Beta cell apopt	Calb FLC
CC(OC(=O)C1=COCCO1)C(=O)c1ccc(Br)cc1 (stereo not drawn)	-2	.	i	.	-1.3	-5	-16	-9.7	-2	.
COc1cccc(NC(=O)CC2C(=O)NC3CCCCC3N2C(=O)c2ccc(F)cc2)c1 (stereo not drawn)	-5	-2	i	0.2	1.9	8	-3	-2.6	-1	0

This part in full, from the first entry:
SMILES	ALR inh	T cruzi repl	FGF22 binding	RanGTP-Imp inh	AF4-AF9 inh	rRNA inh HTS	rRNA inh HTS OD600	rRNA inh HTS RFP	Beta cell apopt	Calb FLC
CC(OC(=O)C1=COCCO1)C(=O)c1ccc(Br)cc1 (stereo not drawn)	-2	.	i	.	-1.3	-5	-16	-9.7	-2	.
COc1cccc(NC(=O)CC2C(=O)NC3CCCCC3N2C(=O)c2ccc(F)cc2)c1 (stereo not drawn)	-5	-2	i	0.2	1.9	8	-3	-2.6	-1	0
COc1cccc(CNc2cnc3ccccc3c2)c1O	73	-1	.	3.3	.	.	.	.	.	27
O=C(N/N=C/c1ccc(-c2ccc(Cl)c(C(=O)O)c2)o1)c1cc2c(ccc3ccccc32)o1	35	-4	i	8.0	1.9	-33	-69	14	-7	17
C=CCn1c(Oc2cccc(C)c2)nc2c1c(=O)n(C)c(=O)n2C	-15	5	i	?	0.1	-11	-18	1.1	-1	22
Cc1ccc(Nc2nc3nonc3nc2N(C)C)cc1	-1	8	.	2.6	.	.	.	.	0	-1
C#CCn1c(CCNC(=O)c2ccco2)nc2ccccc21	-4	6	i	2.2	-0.2	7	8	0.2	2	5
Cc1c(C(=O)NCc2cccnc2)oc2ccc(S(=O)(=O)N3CC(C)CC(C)C3)cc12 (stereo not drawn)	0	-5	i	?	-17	-4	2	2.6	6	-4
O=C(O)c1ccccc1-c1ccccc1C(=O)Nc1ccc(OC(F)(F)F)cc1	-2	-5	i	-1.2	-15	-25	-31	-4.4	.	-4
COc1ccc(N2CCN(C(=O)CCNS(=O)(=O)c3cc(Br)cnc3N)CC2)cc1	71	-11	.	-3.4	.	.	.	.	1	-19
CCn1c(NC(=O)C(C)C)c(-c2cccs2)c(=O)c2ccccc21	-2	-5	i	1.5	-0.6	6	1	0.0	4	-5
CC(=O)c1c(O)c2cccc3c2n(c1=O)CCC3	-6	-3	i	6.0	-6.0	2	-5	-2.1	-8	4
C/C=C(/C)C(=O)Nc1cccc(C2=NOC3(C2)C[C@@H](C(N)=O)N(C(=O)C2(C)CC2)C3)c1 (stereo partly drawn)	-5	-2	i	-2.5	-14	2	1	-3.0	-2	-8
O=C(COC(=O)/C=C/c1cccc([N+](=O)[O-])c1)NCC1CCCO1 (stereo not drawn)	12	18	i	2.1	-1.7	5	10	-4.8	0	-24
COc1cc2cc(Br)cc(Br)c2nc1C	-7	8	.	-0.1	.	.	.	.	-2	5
COC(=O)c1sc2cc(C(F)(F)F)cnc2c1-c1cccnc1	4	-7	.	-0.9	.	.	.	.	-9	5
O=C(O)CC(SCC(=O)Nc1ccccc1)C(=O)O (stereo not drawn)	-11	-2	i	.	-18	-1	9	2.2	-5	-1
CCCC(=O)Nc1ccc(NC(=O)C23CC4CC(CC(C4)C2)C3)cn1	-9	6	.	-0.8	.	.	.	.	-6	-7
CN(C)N1C(=O)CC(NNC(=O)c2ccncc2)C1=O (stereo not drawn)	86*	3	.	0.7	.	.	.	.	-7	-3
O=C(CC1SC(=O)N(c2ccccc2)C1=O)Nc1ccccc1 (stereo not drawn)	98*	-7	.	-9.8	.	.	.	.	-11	9
O=C(C1=NN[C@@H]2C(=O)N(c3ccccc3C(F)(F)F)C(=O)[C@H]12)c1cnccn1	0	17	i	4.9	0.8	17	13	2.5	.	-3
CCOc1ccc2nc(SCC(=O)NC(=O)NCc3ccco3)sc2c1	-15	0	.	0.6	.	.	.	.	-10	34
CCOC(=O)c1sc2nc(SCC(=O)NCc3ccco3)n(Cc3ccccc3)c(=O)c2c1C	.	-5	.	-1.2	.	.	.	.	9	1
Cc1cccc(N2CCN(C(c3ccc(N(C)C)cc3)c3nnnn3C(C)(C)C)CC2)c1C (stereo not drawn)	-2	2	.	-9.6	.	.	.	.	-10	-9
O=C(O)c1ccc(CSc2nnc(-c3ccc(Cl)cc3)o2)cc1	-3	-9	i	5.8	-0.6	-11	-11	-1.3	1	-6
Cc1ccccc1CC(=O)NCC1CCCCC1	0	4	i	0.7	0.5	10	1	1.0	.	1
CN1/C(=C/C(=O)C2CCC2)Sc2ccccc21	4	7	i	3.6	-11	-7	-4	2.6	4	48
N#CC1=C(N)C2=C(N3CCCCC3)CCCC2C1(C#N)C#N (stereo not drawn)	.	-3	.	-19	.	.	.	.	-1	?
CC(=O)Cn1c(C(F)(F)F)nc2ccccc21	-17	21	.	-2.7	.	.	.	.	-2	-2
COC(=O)c1sccc1NC(=O)c1cc(OC)cc(OC)c1	.	2	.	-39	.	.	.	.	-3	22
Cc1ccc(NC(=O)CN2C(=O)CN(C)C2=O)cc1S(=O)(=O)N1CCCCC1	3	-6	i	2.0	0.5	6	5	4.3	-5	-37
COc1cccc(C(=O)OCC(=O)NC(=O)NC2CCCC2)c1O	8	-11	i	2.4	-0.8	-8	-7	-0.4	-7	22
CCN(CC)CC(=O)Nc1c2c(nc3ccccc13)N(C)CC2	.	-2	i	2.0	4.7	9	1	-1.1	7	-3
COc1ccc(-c2ccc([C@H]3[C@@H]4C=CCC[C@@]4(C)C(=O)N3Cc3ccccc3)c(F)c2)cc1	.	52	i	-0.3	2.0	23	14	0.1	85*	-13
COC(=O)C1=C(C)NC(C)=C(C(=O)OC)C1C1CC=CCC1 (stereo not drawn)	.	7	.	?	.	.	.	.	-4	3
NC(=O)C1CCN(CCCNC2CC(=O)N(Cc3ccc(N4CCCC4=O)cc3)C2=O)CC1 (stereo not drawn)	7	-12	i	1.8	-2.0	11	11	-0.8	-1	-2
CCC(NC(=S)NCc1ccc(F)cc1)c1ccc(C(C)C)cc1 (stereo not drawn)	-8	23	i	4.7	1.0	-20	-42	1.1	17	-22
O=C(O)CCCC(=O)Nc1ccccc1C(=O)N1CCOCC1	-5	-9	i	-1.4	-3.5	11	6	-5.8	-5	1
CC1CCCCC1NC(=O)CO/N=C/c1ccccc1OC(F)F (stereo not drawn)	.	6	i	-3.4	1.7	6	4	1.8	-1	-8
COc1ccc(SCCc2nnc(-c3ccccc3)o2)cc1	.	-4	i	1.4	-4.2	-6	-12	3.0	.	1
O=C(CO/N=C/c1cccc([N+](=O)[O-])c1)NC1CCCCC1	-4	3	i	-2.1	-28	16	12	-2.5	-5	-12
Cc1ccc(C(=O)N2Cc3ccccc3CC2C(=O)O)cc1 (stereo not drawn)	2	-8	i	2.5	2.4	7	-3	-2.6	-8	8
CCCCn1c(N)c(N(CC)C(=O)CSCc2c(C)noc2C)c(=O)[nH]c1=O	3	-1	i	-2.6	-5.1	6	17	1.1	.	-3
CC(C)(C)OC(=O)[C@H](Cc1ccccc1)NC(=O)c1nc[nH]c1C(=O)N1CCc2ccccc2C1	.	-2	i	?	7.8	-14	-20	-8.8	1	-5
COc1ccccc1NC(=O)COC(=O)CC(C)(C)CC1=NS(=O)(=O)c2ccccc2N1	-3	4	i	3.0	0.3	-2	-11	5.3	-13	9
O=C1CC(C(=O)Nc2ccc(Br)cc2)C2(CCCC2)O1 (stereo not drawn)	-4	2	i	3.5	-0.6	5	-4	3.5	-3	1
Cc1nc(C)n(C(Oc2ccc(Cl)cc2Cl)C(=O)C(C)(C)C)n1 (stereo not drawn)	10	-4	i	0.8	-5.1	-18*	-1.4*	-5.1*	.	4
O=C(Nc1c(F)cc(F)cc1Br)c1cc(-c2ccccc2)on1	.	1	i	0.7	-19	8	3	-3.8	-12	9
CCCCC(=O)Nc1cc(Cl)ccc1C(=O)O	5	-4	i	-12	-3.4	-24	-52	-4.3	0	-2
CCn1c(COc2ccccc2)nnc1SCC(=O)NCc1ccco1	-4	-6	i	1.1	-1.2	2	0	-0.7	-3	-1
COc1ccc(N2CCN(C(=O)C3CCN(S(=O)(=O)c4ccc5c(c4)oc(=O)n5C)CC3)CC2)cc1	1	-1	i	2.7	3.8	3	0	1.7	3	6
Cc1[nH]c2ccc(F)cc2c1CCN(Cc1cccnc1)C(=S)NC(C)(C)C	6	65*	i	-0.4	11	-8	6	6.5	-6	3
CNC(=S)Nc1cccc(C(=O)O)c1	-13	2	.	1.0	-1.5	11	4	-3.2	-4	24
NC(=O)c1c(NC(=O)c2ccc(F)cc2)sc2c1CCC2	7	27	i	7.1	-16	-20	-36	28	-2	26
C/C(=N\NC(=O)COc1ccccc1-c1ccccc1)c1ccccn1	.	71*	i	1.3	6.0	-49*	-39*	-11*	81*	15
CCCCNC(=O)[C@@](CC)(ONc1ccccc1C(F)(F)F)c1cccc2ccccc12	-14	.	i	.	2.0	7	1	-2.5	-1	.
O=C(CNC(=O)c1ccc(Br)cc1)NCC(=O)OCC(=O)c1ccc(F)cc1	-14	.	i	.	-1.3	1	4	-1.7	-7	-13
COc1ccc(S(=O)(=O)Nc2ccc(-c3ccc(N4CCCC4)nn3)cc2)cc1C	-7	19	i	?	-18	-2	-3	-1.3	.	4
COc1ccc(CCC(=O)N2CCN(S(=O)(=O)c3ccc4ccccc4c3)CC2)cc1	.	1	.	-2.5	.	.	.	.	-9	8
CCN(CC)S(=O)(=O)c1cccc(NC(=O)CCNC(=O)NC23CC4CC(CC(C4)C2)C3)c1	1	3	.	-0.5	.	.	.	.	.	-5
Additional compounds follow.
SMILES	ALR inh	T cruzi repl	FGF22 binding	RanGTP-Imp inh	AF4-AF9 inh	rRNA inh HTS	rRNA inh HTS OD600	rRNA inh HTS RFP	Beta cell apopt	Calb FLC
CCOC(=O)C1CCCN(CCC(=O)Nc2ccc(F)c(F)c2)C1 (stereo not drawn)	-5	5	.	3.2	.	.	.	.	1	1
O=C1N/C(=C/c2ccc(N3CCOCC3)o2)C(=O)N1c1cccc(Cl)c1	13	9	i	-3.4	-5.9	16	8	-1.0	33	9
CCCc1c(O)nc(SC2CC(=O)N(c3cc(OC)ccc3OC)C2=O)[nH]c1=O (stereo not drawn)	-1	-4	.	-2.2	.	.	.	.	.	-3
CCOC(=O)Cn1c(=O)oc2cc(S(=O)(=O)N(C)c3cccc(C)c3)ccc21	-6	2	i	11	-2.0	-22*	-18*	3.2*	0	15
O=C(Cn1cc([N+](=O)[O-])cn1)NC1CCCCCC1	.	-3	i	1.6	-4.2	3	7	0.0	-2	0
COc1ccc(CCNS(=O)(=O)c2cc3c4c(c2)CCN4C(=O)CC3)cc1	-6	-8	i	4.2	-0.6	-2	0	-0.4	1	2
Cc1ccc(NC(=O)C2CCN(c3ncnc4sc(C)c(C)c34)CC2)cc1S(=O)(=O)N(C)C	-14	16	i	0.9	-4.1	0	1	6.5	23	-6

Screening results deposited in PubChem BioAssay by Broad Institute.

These rows are one share of the data. The share of hits here may be higher or lower than overall.
